# From PubChem BioAssay
# Rango release inh = prevents RanGTP from dissociating the Rango-importin beta complex; O95149+P62826; Biochemical FRET Rango-importin beta, RanGTP-induced dissociation; Potency, µM (series often up to 46.1 µM), without a hit: at the top dose activity change, negative = inhibition; 0.071% of 340,000 active; AID 540253; active means falling FRET ratio curve, often poorly fitted, with flat reads before Ran was added; inconclusive means other falling curves, or compound fluorescence or quenching; inactive means flat or rising ratio curve;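 further: potency means the concentration at half of the fitted maximal effect; % of control where 0% means no effect; nearly all actives have a fitted effect of over 45% in size; -100% = wells without RanGTP and RCC1; the record marks most hits as doubtful in a second field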
#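 FRET read at 45 min, room temperature: inhibitors block the CFP/YFP signal rise when RanGTP (0.6 uM Ran, 2 mM GTP, 0.2 uM RCC1) frees Rango (0.1 uM) from importin beta (0.25 uM). Pre-read after 5 min compound exposure flags interference.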
# Rango complex inh = inhibitors of Rango-importin beta complex formation; Rango CFP/YFP FRET sensor + importin beta, 45 min; 0.031% of 340,000 active; Potency, µM (doses to about 92.2 µM), inactives show top-dose inhibition of complex formation; Q14974; active = rising FRET ratio curve, often small or poorly fitted; inconclusive = mostly compound fluorescence or quenching in the first reads; inactive = flat curves in all reads;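 further: potency means the concentration at half of the fitted maximal effect; 0% = DMSO wells and 100% = buffer wells lacking importin beta; nearly all actives have a fitted effect of over 15% in size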
# Target sequence (Q14974 whole entry, looked up): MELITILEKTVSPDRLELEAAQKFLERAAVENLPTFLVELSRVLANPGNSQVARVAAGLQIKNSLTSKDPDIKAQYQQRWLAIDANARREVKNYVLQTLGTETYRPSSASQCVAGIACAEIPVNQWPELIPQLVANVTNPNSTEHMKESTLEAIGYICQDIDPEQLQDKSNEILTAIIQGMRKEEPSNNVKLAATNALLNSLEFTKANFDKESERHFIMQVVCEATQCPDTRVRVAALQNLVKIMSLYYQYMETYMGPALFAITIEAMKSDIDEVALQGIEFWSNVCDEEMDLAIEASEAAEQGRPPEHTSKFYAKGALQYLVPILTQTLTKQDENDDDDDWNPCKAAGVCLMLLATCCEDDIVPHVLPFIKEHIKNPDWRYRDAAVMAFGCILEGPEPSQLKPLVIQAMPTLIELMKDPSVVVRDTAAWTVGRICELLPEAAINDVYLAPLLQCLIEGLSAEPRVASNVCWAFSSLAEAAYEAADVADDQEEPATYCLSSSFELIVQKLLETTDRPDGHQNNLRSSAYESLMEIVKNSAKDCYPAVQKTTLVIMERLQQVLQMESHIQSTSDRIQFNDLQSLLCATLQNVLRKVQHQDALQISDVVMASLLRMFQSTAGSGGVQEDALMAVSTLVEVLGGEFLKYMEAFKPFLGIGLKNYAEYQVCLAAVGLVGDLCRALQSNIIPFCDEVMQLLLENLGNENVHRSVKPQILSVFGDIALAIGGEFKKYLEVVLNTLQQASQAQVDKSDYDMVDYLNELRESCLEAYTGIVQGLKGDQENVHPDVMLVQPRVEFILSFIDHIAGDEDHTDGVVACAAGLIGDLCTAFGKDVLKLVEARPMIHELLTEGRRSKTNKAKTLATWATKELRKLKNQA
#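 FRET biosensor (snurportin 1 IBB flanked by EYFP and cerulean), 50 nM, with compound 5 min, then 0.125 microM importin beta in PBS, 1 mM DTT, 0.02% Tween-20, 0.1% BSA. CFP/YFP ratio read after 45 min at room temperature; pre-read flags interference.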
# miR-21 FLuc = raises the signal of a miR-21 reporter | HeLa miR-21 FLuc reporter, luciferase, 48 h | Potency, µM (doses to about 38.3 µM), for the others: top-dose reporter change, positive = more light | 340,000 tested, under 10 active; active = well fitted rising curve with a large enough effect; inconclusive = small, poorly fitted or top-dose-only effect; inactive = no such curve, though single readings can be large or run the other way;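 further: % of control where 0% means no effect; miR-21 action dims this reporter so a rising signal means less miR-21 action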
#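 Using DMEM plus 10% FBS, HeLa miR-21-FLuc cells are incubated with test compounds (final up to about 40uM) for 48 hours; firefly luciferase signal is then imaged following reagent-mediated lysis.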
# GLA inh pH 4.5 = inhibitors of human alpha-galactosidase A at pH 4.5. P06280. purified enzyme, 4-MU-alpha-Gal fluorescence, pH 4.5. activity change, negative = inhibition, % at 105 µM. 230,000 tested, under 10 active. AID 1467; inconclusive = small, poorly fitted or top-dose-only inhibition, or a rising curve; inactive = flat fitted curve, though single readings scatter; no compound was filed as active;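 further: 0% = full activity with enzyme and -100% = basal without enzyme; dose as in the result columns while the protocol names 77 µM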
# An asterisk follows results filed as active; ? = inconclusive; / = not tested or not shown; & = joins results of further samples. An excerpt; count on the stated rates, not on these rows.
SMILES,Rango release inh,Rango complex inh,miR-21 FLuc,GLA inh pH 4.5
CN(C)S(=O)(=O)c1cc(NC(=O)c2ccc(-n3ccnc3)c([N+](=O)[O-])c2)ccc1Cl,22%,2.8%,25%,/
COC1(c2cc(-c3ccccc3)nc(N)n2)CCCCC1,-7%,0.0%,5%,3
COc1ccc(OCC(=O)N2CCN(c3nnc(-c4ccc(C)cc4)c4ccccc34)CC2)cc1,-1%,-0.1%,7%,-8
O=C(/C=C/c1c(F)cccc1Cl)Nc1ncccn1,-9%,-0.4%,-67%,-11
O=C(c1ccc(NC(=O)C2(c3ccccc3)CCCC2)cc1)N1CCOCC1,7%,-2.2%,0%,1
CC(C)c1nnc(NC(=O)CCC(=O)Nc2ccc(Cl)cc2)s1,-5%,-0.9%,-1%,/
CCCCC(CC)C(=O)Nc1ccccc1C(=O)NC(C)C (stereo unspecified),2%,-2.6%,1%,-2
COC(=O)C1=NN(C(C)(C)CC(C)=O)C2C(=O)N(C3CCCCC3)C(=O)C12 (stereo unspecified),-2%,-0.1%,-3%,2
COc1ccc(NC(=O)CCS(=O)(=O)c2cc3c(cc2Cl)NC(=O)CO3)cc1OC,11%,0.1%,1%,/
O=C(NC1CC1)C1=COCCO1,-16%,-3.4%,-1%,-3
C/C(=N\NC(=O)c1ccc(F)cc1)c1ccc(N2CCOCC2)cc1,-21%,-2.0%,-31%,2
NNC(=O)c1ccccc1-n1cccc1,-13%,-0.6%,-4%,3
O=C(O)CCC(=O)Nc1ccc(Oc2ncnc3cc(Cl)ccc23)nc1,0%,2.0%,-2%,0
NC(=O)c1ccc(N=Nc2c(O)c3ccccc3[nH]c2=O)cc1,/,/,-4%,-2
Cc1cc(C)nc(-n2ncc(C#N)c2N)n1,-5%,-0.2%,-8%,1
CCOC(=O)C1=C(CCl)NC(=O)NC1c1ccc2c(c1)OCO2 (stereo unspecified),-9%,?,16%,/
Cc1ccc(NC(=O)C2C3C=CC4(CN(Cc5cccnc5)C(=O)C24)O3)cc1F (stereo unspecified),-3%,0.1%,-6%,5
CCCc1cc2c(cc1NC(=O)c1ccccc1Cl)OCO2,-1%,-1.5%,-13%,-1
CNc1nnc(CSc2nc3ccccc3s2)s1,10%,2.8%,-49%,-8
Cc1ccc(OCC(O)Cn2c(N)nc3c2c(=O)n(C)c(=O)n3C)cc1 (stereo unspecified),16%,-1.2%,-3%,6

# Quoted from the results shown, two compounds:
SMILES,Rango release inh,Rango complex inh,miR-21 FLuc,GLA inh pH 4.5
CNc1nnc(CSc2nc3ccccc3s2)s1,10%,2.8%,-49%,-8
Cc1ccc(OCC(O)Cn2c(N)nc3c2c(=O)n(C)c(=O)n3C)cc1 (stereo unspecified),16%,-1.2%,-3%,6

# New compounds follow.
SMILES,Rango release inh,Rango complex inh,miR-21 FLuc,GLA inh pH 4.5
CC1CCc2c(sc3ncnc(N4CCOCC4)c23)C1 (stereo unspecified),8%,-4.4%,-15%,5
COc1ccc(NC(=O)c2cc(S(=O)(=O)N3CCOCC3)cn2C)cc1Cl,-10%,-0.3%,-15%&-1%,/
CCc1ccc(-c2nc(SCC(=O)c3c(N)n(C4CC4)c(=O)[nH]c3=O)n[nH]2)cc1,-7%,1.8%,/,/
CCCNC(=O)CN(C1CCCCC1)S(C)(=O)=O,21%,7.1%,1%,3
Cc1ccc2nc(N3CCN(C(=O)CCC(=O)O)CC3)nc(-c3ccccc3)c2c1,?,?,-19%,/
O=C(O)CC1(CC(=O)NCc2ccccn2)CCCCC1,2%,14%,-1%,4
CN(C)CCNC(=O)c1onc(CSc2ccncc2)c1C(=O)NCCN(C)C,1%,-0.7%,/,/
O=C(Nc1ccccc1C(F)(F)F)NC1CCCCCCC1,-4%,-2.4%,-30%,7
O=C(Cn1nnc(-c2cccs2)n1)NCc1ccccc1,-9%,-0.4%,-2%,1
CCN(CC)S(=O)(=O)c1ccc(C(=O)Nc2nnc(-c3ccco3)o2)cc1,9%,0.5%,20%,-3
O=C(N/N=C/c1ccc(N2CCCC2)c([N+](=O)[O-])c1)c1cccnc1,-1%,5.4%,-6%,-4
CCCCOC(=O)N1CCOCCOCCOCCOCC1,1%,-3.8%,-12%,-1
COc1ccc(COC[C@H](C)[C@H](O)[C@@H](C)[C@H]2OC(=O)[C@@H]2C)cc1,-18%,-0.5%,/,/
COc1ccc(O)c(C2NC(CC(C)C)(C(=O)O)C3C(=O)N(Cc4ccccc4)C(=O)C23)c1 (stereo unspecified),1%,0.2%,-5%,1
CCN(CC)C(=O)c1cc2sc3ccccc3c2s1,21%,-6.4%,-70%,-5
O=C(Nc1cccc(C(F)(F)F)c1)c1cccnc1,-20%,0.4%,-17%,15
CN1CCN(S(=O)(=O)c2cccc(C(=O)N(C)CC(=O)Nc3ccc(Cl)c(Cl)c3)c2)CC1,5%,-4.9%,/,/
O=C(c1ccco1)N1CCN(C(=O)c2ccc(CS(=O)c3ccc(Cl)cc3)o2)CC1 (stereo unspecified),17%,0.7%,1%,/
COc1ccc(C(=O)CCC(=O)NC2=NCCS2)cc1,-11%,-1.0%,0%,/
CC1(CCc2ccc3c(c2)OCO3)NC(=O)c2ccccc2N1 (stereo unspecified),2%,-1.7%,-6%,7

# A different layout for 3 compounds above:
SMILES	Rango release inh	Rango complex inh	miR-21 FLuc	GLA inh pH 4.5
O=C(c1ccc(NC(=O)C2(c3ccccc3)CCCC2)cc1)N1CCOCC1	7%	-2.2%	0%	1
CC(C)c1nnc(NC(=O)CCC(=O)Nc2ccc(Cl)cc2)s1	-5%	-0.9%	-1%	/
CCCCC(CC)C(=O)Nc1ccccc1C(=O)NC(C)C (stereo unspecified)	2%	-2.6%	1%	-2

# (listing goes on)
SMILES,Rango release inh,Rango complex inh,miR-21 FLuc,GLA inh pH 4.5
O=C(CCc1ccccc1)Nc1cccc(-c2nnc(-c3ccco3)o2)c1,-13%,-1.7%,12%,1
COc1ccc(NC(=O)C/C(C)=N/NC(=O)c2ccccn2)c(OC)c1,4%,0.6%,-59%,/
COCCn1c(C)cc(C(=O)COC(=O)CCc2ccc(S(=O)(=O)N3CCOCC3)cc2)c1C,10%,-0.8%,2%,4
COc1ccc(-n2nc(C(=O)Nc3nc4ccc(OC)cc4s3)c3ccccc3c2=O)c(OC)c1,/,/,-6%,2
COc1ccc(CC(=O)OCC(=O)NC2CCCCCC2)cc1OC,-7%,-0.1%,/,/
CC(=O)COC(=O)c1cccc(N2C(=O)C3C4C=CC(C4)C3C2=O)c1 (stereo unspecified),-2%,?,-6%,-2
COC(=O)c1scc(C)c1NC(=O)Cc1ccccc1,13%,4.6%,-4%,7
CC(NC(=O)c1ccc2c(c1)OCCO2)c1ccc(S(N)(=O)=O)cc1 (stereo unspecified),8%,0.5%,-11%,0
Cc1cccc(Cc2cnc(NC(=O)c3ccc(C)o3)s2)c1,-2%,0.0%,-19%,6
N#CCSc1ncnc2ccccc12,-22%,-1.5%,8%,-4
Clc1ccc2ncc(-c3nnnn3-c3ccccc3)c(-c3ccccc3)c2c1,-3%,5.7%,27%,2
C=CCn1c(SCC(=O)N2CC(C)OC(C)C2)nnc1-c1ccncc1 (stereo unspecified),4%,-5.0%,/,/
COc1cccc(CSc2nnc(C(F)(F)F)n2Cc2ccc(F)cc2)c1,-6%,-1.2%,-9%,4
CCOCc1nnc(NC(=O)c2ccc(NC(C)=O)cc2)s1,-4%,1.0%,-2%,2
C[C@H](NC(=O)C(c1ccccc1)c1ccccc1)c1ccccc1,22%,-5.8%,9%,/
O=C(CN1C(=O)NC2(CCCC2)C1=O)Nc1cc(Cl)ccc1N1CCCC1,-21%,4.6%,1%,/
COc1ccc(C2Nc3ccccc3C(=O)N2Cc2ccco2)cc1COc1ccc(F)cc1 (stereo unspecified),7%,-0.1%,13%,0
O=C1c2ccccc2C(=O)N1CCc1c[nH]c2ccc(O)cc12,-17%,-5.3%,-42%,4
CCOC(=O)C1CCCN(CC(O)COCc2ccc3c(c2)OCO3)C1 (stereo unspecified),16%,0.0%,1%,-5
COc1cc2c(cc1OC)CN(C(=O)Cn1ccccc1=O)CC2,-13%,-1.2%,7%,/

# Reformatted tab-delimited: two of the compounds above
smiles	Rango release inh	Rango complex inh	miR-21 FLuc	GLA inh pH 4.5
O=C(CCc1ccccc1)Nc1cccc(-c2nnc(-c3ccco3)o2)c1	-13%	-1.7%	12%	1
Clc1ccc2ncc(-c3nnnn3-c3ccccc3)c(-c3ccccc3)c2c1	-3%	5.7%	27%	2

# Next section:
SMILES,Rango release inh,Rango complex inh,miR-21 FLuc,GLA inh pH 4.5
CCOc1ccc(CC(=O)NCC2(N3CCCCC3)CCCCC2)cc1,1%,7.1%,2%,3
COc1ccccc1NC(=O)CSc1nnc(C2CCCCC2)o1,-6%,0.1%,-29%,-4
CC(C)C(CC(=O)NCc1ccco1)c1ccco1 (stereo unspecified),-7%,1.2%,2%,-3
CCN(Cc1ccccc1)c1ccc(/C=N/NC(=O)c2cccc(S(=O)(=O)N3CCOCC3)c2)cc1,?,?,?,-8
Cc1nc2cc3ccccc3cc2c(=O)[nH]1,?,?,-40%,?
CN(CCOC(=O)c1ccccc1)Cc1ccccc1,5%,-0.8%,0%,1
COc1ccc(OCC(=O)Nc2ccncc2)cc1,0%,3.1%,-1%,-1
NC(=O)c1ccc[n+](CC(=O)c2cccc([N+](=O)[O-])c2)c1,20%,-1.3%,-2%,/
O=C(Nc1ccc(S(=O)(=O)Nc2nccs2)cc1)c1cccc(F)c1,1%,-0.3%,-1%,/
COc1ccc(-c2noc(CSc3nc4sc(C)c(C)c4c(=O)n3-c3ccccc3)n2)cc1OC,7%,-1.9%,-2%,2
O=C(CC1C(=O)NCCN1CC1CCCCC1)NC1(c2ccccc2)CC1 (stereo unspecified),-5%,2.4%,3%,3
Cc1ccc(C)c(N(CC(=O)NC(C)(C)C)C(=O)CNC(=O)c2cccs2)c1,9%,1.2%,1%,-4
CC(OC(=O)c1nc(-c2ccccc2)n(-c2ccccc2)n1)C(=O)Nc1cc(Cl)cc(Cl)c1 (stereo unspecified),2%,-3.6%,-4%,3
COc1ccc(C(=O)NC2CCCc3ccccc32)cc1Br (stereo unspecified),4%,2.8%,13%,/
CCC(C)NC(=O)Cn1cnc2sc(C)cc2c1=O (stereo unspecified),1%,-2.9%,-4%,13
COc1cc(-c2c(-c3ccsc3)sc3ccccc23)cc(OC)c1OC,28%,4.9%,/,/
Cc1ccc2oc(C(=O)N(Cc3ccc(N(C)C)cc3)C3CCS(=O)(=O)C3)c(C)c2c1 (stereo unspecified),8%,0.4%,-10%,/
CC/C(O)=C1\C(=O)CC(c2ccccc2)CC1=NC(C)C (stereo unspecified),-4%,-3.7%,0%,-3
O=C1NC(c2ccc(Cl)cc2Cl)Oc2ccccc21 (stereo unspecified),-9%,-1.1%,-1%,/
c1csc(-c2csc(-c3cccs3)n2)c1,16%,3.0%,-41%,0
CC(C)OC(=O)Cn1nnc(-c2ccccc2)n1,-2%,0.5%,-2%,1
CCN(C(=O)c1ccc(Br)cc1)c1ccccc1,12%,-0.7%,-3%,5
COc1ccc(C(=O)/C=C/c2ccc(OC)c(O)c2)c(F)c1,-5%,1.6%,13%,6
CCOC(=O)CNC(=O)N1CCc2ccc(NC(=O)c3ccccc3OC)cc2C1,32%,3.5%,-7%,/
CC1CN(C(=O)c2cccc(S(=O)(=O)Nc3cc(Cl)ccc3Cl)c2)CC(C)O1 (stereo unspecified),7%,1.1%,12%,-2
Cc1ccc(C(=O)NCCCn2ccnc2)cc1[N+](=O)[O-],0%,-3.8%,-1%,0
CCC(C)c1ccc(S(=O)(=O)N2CCN(C(=O)COc3ccc4c(C)cc(=O)oc4c3)CC2)cc1 (stereo unspecified),-9%,-0.7%,3%,-19
Cc1ccc(C(=O)OCC(=O)Nc2cc(S(=O)(=O)N3CCOCC3)ccc2C)cc1,-24%,-4.8%,-4%,-7
CNC(=O)Nc1cc(C(C)(C)C)no1,1%,-0.3%,-9%,4
NC(=O)C12CCCC(Br)(CCC1)C2,13%,0.6%,0%,9

# Quoted from the listing:
# In Rango release inh, `CCC(C)c1ccc(S(=O)(=O)N2CCN(C(=O)COc3ccc4c(C)cc(=O)oc4c3)CC2)cc1` (stereo unspecified) is entered as -9%
# In Rango release inh, `NC(=O)C12CCCC(Br)(CCC1)C2` is entered as 13%
